Compound activity deposited in PubChem by National Center for Advancing Translational Sciences (NCATS).
Cruzain inh Det: inhibitors of Trypanosoma cruzi cruzain with detergent | P25779 | purified cruzain, Z-FR-AMC fluorescence, 0.01% Triton | Potency, µM, for inactives: max response, negative = inhibition, most hits filed as inhibitors | 200,000 tested, 0.43% active | AID 1478;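 note: plate controls were neutral wells for no effect and buffer without enzyme for full effect; nearly all actives have a fitted effect of over 40% in size; top concentration of the series not given in the record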
Target sequence (P25779 123-467 limits assumed): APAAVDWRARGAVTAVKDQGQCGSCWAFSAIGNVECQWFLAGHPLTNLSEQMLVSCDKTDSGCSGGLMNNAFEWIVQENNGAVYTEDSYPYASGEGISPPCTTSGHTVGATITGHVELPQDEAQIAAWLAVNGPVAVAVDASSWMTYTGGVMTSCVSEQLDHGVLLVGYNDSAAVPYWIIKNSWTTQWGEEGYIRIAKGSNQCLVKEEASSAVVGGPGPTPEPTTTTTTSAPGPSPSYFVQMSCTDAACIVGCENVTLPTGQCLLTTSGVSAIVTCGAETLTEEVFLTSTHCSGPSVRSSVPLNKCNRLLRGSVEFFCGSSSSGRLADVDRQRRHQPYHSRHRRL
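Compounds were screened in titration against cruzain (1.5 nM) with 0.01% Triton X-100 to counter colloidal aggregation. Activity was the AMC fluorescence increase over 60 s after adding 2 uM Z-FR-AMC at pH 5.5.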
MARV entry inh: Marburg virus entry inhibition; Marburg virus pseudotyped entry inhibition, cell reporter; control for the full effect not named in the record; about a third of the inactives were read at about 46 µM; Potency, µM (top dose mostly 37.8 µM), for inactives: top-dose activity change, negative = inhibition, usual class: inhibitors; 300,000 tested, 1.8% active; AID 540276; active = well fitted inhibition curve with a large enough effect; inconclusive = small, poorly fitted or top-dose-only effect, or effect the other way; inactive = flat fitted curve, though single readings scatter; tested in HEK293 cells; about a fifth of its hits are not listed in these tables; note: % is set by controls: 0 for no effect and ±100 for the full control effect; luciferase read-out
NS1 function inh: inhibitors of influenza NS1 protein function; Potency, µM (highest dose often 46.1 µM), for inactives: top-dose activity, positive = more growth; S. cerevisiae slowed by influenza A NS1, growth recovery by OD600; 270,000 tested, 0.4% active; active means well fitted rising curve with a large enough effect; inconclusive means small, poorly fitted or top-dose-only effect; inactive means no such curve, though single readings can be large or run the other way; note: nearly all actives have a fitted effect of over 50% in size
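A cell-based growth assay was used: compounds that relieve NS1-induced slow growth of budding yeast raise OD600. Assay medium was yeast nitrogen base with ammonium sulphate and -URA supplement, pH 6.0, with 2% galactose.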
Lassa entry inh: blocks Lassa virus binding to or entry into cells. 300,000 tested, 1.2% active. Potency, µM (doses to about 37.9 µM), for inactives: top-dose activity change, negative = inhibition, usual class: inhibitors. Lassa virus pseudotype entry inhibition, cell reporter; control for the full effect not named in the record. AID 540256; active means well fitted inhibition curve with a large enough effect; inconclusive means small, poorly fitted or top-dose-only effect, or effect the other way; inactive means flat fitted curve, though single readings scatter; tested in HEK293 cells; note: % is set by controls: 0 for no effect and ±100 for the full control effect; nearly all actives have a fitted effect of over 50% in size; luciferase read-out
Cruzain noTriton: cruzain (T. cruzi) inhibition without detergent; 200,000 tested, 2.3% active; purified cruzain, Z-FR-AMC fluorescence, no detergent; Potency, µM, inactives show max response, negative = inhibition, usual class: inhibitors; P25779;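 note: plate controls were enzyme without inhibitor for no effect and buffer without enzyme for full effect; nearly all actives have a fitted effect of over 40% in size; top concentration of the series not given in the record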
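Purified cruzain at 1.5 nM, pre-incubated 15 min with compound at room temperature in 100 mM sodium acetate pH 5.5, 5 mM DTT, 0.00005% Triton X-100. Reaction started with 2 uM Z-FR-AMC; AMC fluorescence increase over 60 s gives rate.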
SARS PLpro yeast: inhibitors of SARS-CoV papain-like protease in yeast | AID 485353 | S. cerevisiae expressing SARS-CoV PLpro, growth rescue; control for the full effect not named in the record | Potency, µM (doses to about 32.9 µM), for inactives: at the highest dose activity, positive = growth rescue | 330,000 tested, 0.19% active; active means well fitted rising curve with a large enough effect; inconclusive means small, poorly fitted or top-dose-only effect; inactive means no such curve, though single readings can be large or run the other way; note: 0% is about no effect; nearly all actives have a fitted effect of over 55% in size; growth read by luminescence after 48 h
StopGo reporter: FMDV 2A StopGo reporter, luciferase signal. human cells with a luciferase reporter of 2A StopGo recoding; control for the full effect not named in the record. Potency, µM (highest dose often 57.9 µM), for the others: at the highest dose signal change, negative = less light. 410,000 tested, 1.2% active. AID 1159524; active = well fitted falling curve with a large enough effect; inconclusive = small, poorly fitted or top-dose-only effect; inactive = no such curve, though single readings can be large or run the other way; tested in HEK293T cells; note: % is set by controls: 0 for no effect and ±100 for the full control effect; nearly all actives have a fitted effect of over 45% in size; luciferase light after 4 h
RE007 growth inh: less growth of the S. pombe RE007 Vpr strain. S. pombe RE007 Vpr strain, BacTiter-Glo ATP luminescence, 24 h; control for the full effect not named in the record. Potency, µM (top dose mostly 92.2 µM), inactives show top-dose activity change, negative = less growth. 360,000 tested, 0.21% active; active = well fitted falling curve with a large enough effect; inconclusive = small, poorly fitted or top-dose-only effect; inactive = no such curve, though single readings can be large or run the other way;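 note: % is set by controls: 0 for no effect and ±100 for the full control effect; nearly all actives have a fitted effect of over 50% in size; the assay follows cell death caused by Vpr and the record does not say whether a fall means rescue or toxicity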
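Fission yeast RE007 carrying one integrated HIV-1 vpr copy, seeded at OD 0.01 in PMG+AL medium with 23 nL pinned compound. Grown 24 h at 30 degrees; viability read by BacTiter-Glo luminescence after 5 min.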
Active calls of the source: *; ? = inconclusive; / = not tested or not shown; [ ] = dose if it differs, or a comment. Unless noted, calls come from the whole dose curve; as a rule, active = well fitted curve in the direction sought with a large enough effect; inconclusive = small, poorly fitted or top-dose-only effect, or another doubt; inactive = no such curve, though single readings can be large; an effect the other way counts as inactive or inconclusive. Potency is the fitted concentration of half-maximal effect.

SMILES	Cruzain inh Det	MARV entry inh	NS1 function inh	Lassa entry inh	Cruzain noTriton	SARS PLpro yeast	StopGo reporter	RE007 growth inh
N#CNC1=NCN(CCc2ccccc2)CN1	4.1%	?	9%	-20%	6%	1%	-26%	-1%
CCOC(=O)C(NCCOC)(NC(C)=O)C(F)(F)F (stereo not given)	/	-15%[46.1 µM]	6%	-1%	/	0%	-7%	1%
N#C/C(C(=O)N1CCOCC1)=c1\s/c(=C/c2ccncc2)c(=O)n1-c1ccccc1	3.3%	1%	4%	/	-4%	4%	/	/
COc1ccccc1CC(NC(C)=O)C(=O)NC1CCN(C(=O)Nc2ccccc2Cl)CC1 (stereo not given)	/	-9%	-4%	-2%	/	12%	-11%	4%
CCOC(=O)c1sc2nc3c(cc2c1N)COC(C(C)C)C3 (stereo not given)	1.3%	-23%	1%	?	-12%	8%	28%	5%
O=S(=O)(NCc1ccc(Cl)cc1)c1cnc[nH]1	10%	-3%[46.1 µM]	-7%	-13%	-9%	-1%	11%	10%
CCN(CC(=O)NC(C)(C)C)C(=O)CN1c2cccc3cccc(c23)S1(=O)=O	/	0%[46.1 µM]	2%	-19%	/	0%	14%	-2%
Cc1nc(N2CCN(Cc3ccccc3)CC2)nc2c1C(=O)CC(c1ccco1)C2 (stereo not given)	-4.1%	-20%	-63%	2%	-12%	-5%	-26%	-16%
COc1ccc(OCCSc2nnc(CCNC(=O)c3ccc(Cl)c(Cl)c3)n2C)cc1	-28%	6%	13%	22%	?	-1%	?	5%
COc1ccc(N2CC(C(=O)Nc3ccc(S(=O)(=O)Nc4nc(C)cc(C)n4)cc3)CC2=O)cc1 (stereo not given)	1.3%	16%	-11%	-16%	-6%	0%	/	3%
COc1ccc(C(=O)NCC(=O)NCc2cc(=O)n(C)c(=O)n2C)cc1	/	/	-4%	/	/	2%	-18%	-3%
COCCNC(=O)c1cc2c(=O)n3cccc(C)c3nc2n1C	1.0%	/	-12%	/	18%	-2%	-17%	0%
COc1cccc(CN(C)C(=O)c2cc(COc3ccc(-n4cncn4)cc3)on2)c1	/	/	-22%	/	/	?	-23%	-10%
CC(C)(C)NC(=O)C(c1ccc(O)cc1)N(Cc1ccco1)C(=O)CCC(=O)Nc1ccccn1 (stereo not given)	/	2%[46.1 µM]	-6%	-14%[46.1 µM]	/	0%	9%	-17%
Cc1[nH]c2ccc(C(=O)N3CCC(C(N)=O)CC3)cc2c1C	/	1%	/	-2%	/	6%	99%[activator]	9%
COc1ccc(C(=O)N/C(=C/c2cccs2)c2nc3ccccc3[nH]2)cc1OC	-15%	-38%	3%	-2%	-9%	1%	-12%	1%
O=C1CN(C(=O)c2cc3ccccc3oc2=O)C(c2ccccc2)c2cc(F)ccc2N1 (stereo not given)	-2.8%	-8%	-18%	-2%	-3%	-26%	0%	-17%
Cc1ccc(C)c(NC(=O)C(CC(=O)O)C2CCCO2)c1 (stereo not given)	/	/	4%	/	/	0%	2%	1%
O=C1CCCC2=C1C(c1ccccc1)NC(=S)N2 (stereo not given)	/	-19%[46.1 µM]	/	-5%	/	-2%	-7%	16%
COc1ccc(CNC(=O)c2cccc(N(C)C)c2)cc1	1.3%	22%[46.1 µM]	-1%	13%	-6%	-10%	7%	?
Cc1csc(=O)n1CCC(=O)OCC(=O)Nc1cccc(C#N)c1	/	24%	/	16%	/	-3%	-12%	-20%
COc1ccc(-c2cc(C(=O)N(C)Cc3ccccc3)no2)cc1OC	-5.3%	24%	-83%	?	?	-3%	55%[activator]	-12%
COC(=O)C1=C(C)N(C)C(=O)NC1c1ccsc1 (stereo not given)	/	/	2%	/	/	0%	-12%	0%
CNC(=S)N/N=C(\C)c1ccccc1	/	8%	2%	?	/	1%	10%	-6%
CCOC(=O)c1c(S(=O)(=O)NCC(=O)Nc2ccc(C)c(N(C)C)c2)c(C)n(C)c1C	1.3%	/	/	21%[46.1 µM]	9%	/	-3%	/
COc1ccc(CCC(=O)N2C[C@H]3C[C@@H](C2)c2cccc(=O)n2C3)cc1	/	/	-4%	/	/	5%	-7%	-10%
O=S1(=O)CCN(Cc2cccc(Cl)c2)CC1	0.4%	?	-3%	-20%	-6%	-9%	-20%	-4%
CCc1ccccc1NC(=O)CSc1nnc([C@@H](NC(=O)OC(C)(C)C)C(C)CC)o1 (stereo not given in full)	4.0%	?	-50%	3%	19%	5%	-17%	4%
COc1ccc(-n2nnc(-c3nc(-c4ccc5c(c4)OCO5)no3)c2C)cc1Cl	3.7%	/	/	29%[46.1 µM]	-4%	/	-11%	/
COc1cc(C(C[N+](=O)[O-])c2c(N)n(C)c(=O)n(C)c2=O)ccc1O (stereo not given)	/	?	-32%	?	/	-19%	18µM*	?
CCOc1ccc(N2C(=O)/C(=C/c3cc(OC)c(OC)c(OC)c3)N(CC(=O)OC)C2=S)cc1	0.6%	-12%	-3%	?	?	1%	?	0%
CCCCN1CCC(n2c(=O)[nH]c3ccccc32)CC1	-4.8%	?	-16%	-8%	5%	/	/	/
O=c1cc(CN2CCCc3ccccc32)nc2sccn12	/	3%	-5%	?	/	4%	-4%	-2%
NS(=O)(=O)c1ccc(NC(=O)COC(=O)COc2cccc(C(F)(F)F)c2)cc1	/	/	4%	/	/	-1%	5%	5%
Cc1cccc(OCCCOc2cccc3cccnc23)c1C	-14%	?	-120%	?	11%	-30%	-20%	?
COc1cccc(/C=N/NC(=O)CC(C)O)c1OC/C=C/c1ccccc1 (stereo not given)	/	?	-43%	-19%	/	-2%	-14%	1%
O=C(CNC(=O)c1ccco1)NCC(=O)OCc1ccccc1Cl	/	?	?	-5%[46.1 µM]	/	0%	69%[activator]	13%
Cc1cc(C(=O)Nc2sc3c(c2C#N)CCC(C)C3)cs1 (stereo not given)	3.1%	?	-5%	-22%	?	?	42%[activator]	8%
C/C(=N\NS(=O)(=O)c1cccc([N+](=O)[O-])c1)c1cccnc1	/	-14%[46.1 µM]	/	16%	/	0%	-3%	33%
Clc1cccc(-c2nc3ccccn3c2Nc2ccc3c(c2)OCCO3)c1	-12%	-25%[46.1 µM]	/	1%[46.1 µM]	?	/	-4%	/

Looked up by compound from the list above (six):
SMILES	Cruzain inh Det	MARV entry inh	NS1 function inh	Lassa entry inh	Cruzain noTriton	SARS PLpro yeast	StopGo reporter	RE007 growth inh
CCOC(=O)c1sc2nc3c(cc2c1N)COC(C(C)C)C3 (stereo not given)	1.3%	-23%	1%	?	-12%	8%	28%	5%
COc1ccc(CNC(=O)c2cccc(N(C)C)c2)cc1	1.3%	22%[46.1 µM]	-1%	13%	-6%	-10%	7%	?
COc1ccc(CCC(=O)N2C[C@H]3C[C@@H](C2)c2cccc(=O)n2C3)cc1	/	/	-4%	/	/	5%	-7%	-10%
NS(=O)(=O)c1ccc(NC(=O)COC(=O)COc2cccc(C(F)(F)F)c2)cc1	/	/	4%	/	/	-1%	5%	5%
Clc1cccc(-c2nc3ccccn3c2Nc2ccc3c(c2)OCCO3)c1	-12%	-25%[46.1 µM]	/	1%[46.1 µM]	?	/	-4%	/
CNC(=S)N/N=C(\C)c1ccccc1	/	8%	2%	?	/	1%	10%	-6%

The list continues.
SMILES	Cruzain inh Det	MARV entry inh	NS1 function inh	Lassa entry inh	Cruzain noTriton	SARS PLpro yeast	StopGo reporter	RE007 growth inh
O=c1nc2n(c3ncccc13)CCC2	0.7%	8%	-10%	-1%	-2%	0%	/	2%
ON(CCc1ccncc1)Cc1ccccc1	1.4%	-30%[46.1 µM]	-6%	7%[46.1 µM]	24%	/	-11%	-12%
CCOC(=O)c1csc(COc2ccc(OC)cc2)n1	/	?	-4%	?	/	1%	0%	-3%
COc1ccc(S(=O)(=O)NCCc2csc3nc(-c4cccc(C)c4)nn23)cc1F	-5.2%	/	/	?	-8%	/	18%	/
Cc1nc2c(C(=O)NCCc3ccc(Cl)cc3)cnn2c(C)c1Cc1c(F)cccc1Cl	0.3%	/	/	2%[46.1 µM]	-2%	/	-23%	/
COc1cc(-c2nnc(SC/C=C/c3ccccc3)n2N)cc(OC)c1OC	2.9%	?	4%	0%	-5%	1%	?	-7%
CN1CCN(c2nc3c(c(=O)[nH]c(=O)n3C)n2Cc2cccc(Br)c2)CC1	/	/	13%	/	/	-7%	-14%	-5%
Nc1nnc(-c2ccco2)s1	-2.4%	1%	0%	-2%	0%	-7%	/	0%
COc1ccc(CCCc2nc3ccccc3[nH]2)cc1	/	14%[46.1 µM]	-33%	-17%	/	1%	28%	-24%
O=C(Nc1ccc(OC(F)F)cc1)c1cc[n+]([O-])cc1	/	-3%[46.1 µM]	-1%	0%	/	1%	9%	26%
Cc1ccc(C(=O)OCC(=O)c2ccc(S(=O)(=O)N3CCCCC3)cc2)o1	/	-27%	/	18%	/	-4%	0%	27%
Cc1cc([N+](=O)[O-])ccc1-c1ccc(/C=N/NC(=O)Cc2ccccc2)o1	-6.0%	?	-17%	-24%[46.1 µM]	?	5%	-23%	-21%
COc1ccc(/C(O)=C2/C(=O)C(=O)N(Cc3cccnc3)C2c2ccccn2)cc1 (stereo not given)	-5.8%	10%	2%	15%	-7%	1%	9%	-1%
N/C(=N\N=Cc1ccc2c(c1)OCO2)NN=Cc1ccc2c(c1)OCO2	/	?	/	15%	/	/	1%	1%
CC(=O)N1CCN(c2nc3c(F)cc(F)cc3s2)CC1	-0.9%	/	/	2%[46.1 µM]	17%	/	49%[activator]	/
CCCS(=O)(=O)N1CCCC(C(=O)NCCCN(CC)c2cccc(C)c2)C1 (stereo not given)	-0.6%	-13%	-8%	-16%	-6%	0%	-24%	3%
S=C(Nc1ccccc1Cl)N(Cc1cccnc1)Cc1ccco1	/	-23%[46.1 µM]	-4%	-15%	/	0%	-27%	-8%
Cc1cc(NC(=O)C23CCC(C)(C(=O)O2)C3(C)C)no1 (stereo not given)	3.6%	5%	11%	21%	1%	-3%	-11%	-5%
